Screens as filed in PubChem.
Rango release inh = inhibition of RanGTP-driven Rango-importin beta dissociation; O95149+P62826; Biochemical FRET Rango-importin beta, RanGTP-induced dissociation; Potency, µM (highest dose often 46.1 µM), for the others: top-dose activity change, negative = inhibition; actives 0.071% (n = 340,000); active means falling FRET ratio curve, often poorly fitted, with flat reads before Ran was added; inconclusive means other falling curves, or compound fluorescence or quenching; inactive means flat or rising ratio curve;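 also: potency is read from the fitted curve at half-maximal effect; % of control where 0% means no effect; nearly all actives have a fitted effect of over 45% in size; -100% = wells without RanGTP and RCC1; the record marks most hits as doubtful in a second field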
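FRET read at 45 min, room temperature: inhibitors block the CFP/YFP signal rise when RanGTP (0.6 uM Ran, 2 mM GTP, 0.2 uM RCC1) frees Rango (0.1 uM) from importin beta (0.25 uM). Pre-read after 5 min compound exposure flags interference.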
GLA inh pH 4.5 = alpha-galactosidase A (human) inhibition, pH 4.5 | 230,000 tested, under 10 active | AID 1467 | purified enzyme, 4-MU-alpha-Gal fluorescence, pH 4.5 | activity change, negative = inhibition, % at 105 µM | P06280; inconclusive = small, poorly fitted or top-dose-only inhibition, or a rising curve; inactive = flat fitted curve, though single readings scatter; no compound was filed as active;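 also: 0% = full activity with enzyme and -100% = basal without enzyme; dose as in the result columns while the protocol names 77 µM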
miR-21 FLuc = miR-21 reporter, rising signal; HeLa miR-21 FLuc reporter, luciferase, 48 h; Potency, µM (titrated, usually from 38.3 µM), without a hit: at the highest dose reporter change, positive = more light; 340,000 tested, under 10 active; active = well fitted rising curve with a large enough effect; inconclusive = small, poorly fitted or top-dose-only effect; inactive = no such curve, though single readings can be large or run the other way;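 also: % of control where 0% means no effect; miR-21 action dims this reporter so a rising signal means less miR-21 action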
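Using DMEM plus 10% FBS, HeLa miR-21-FLuc cells are incubated with test compounds (final up to about 40uM) for 48 hours; firefly luciferase signal is then imaged following reagent-mediated lysis.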
Rango-impB inh = inhibitors of Rango-importin beta complex formation; Q14974; Potency, µM (highest dose often 92.2 µM), for inactives: at the highest dose inhibition of complex formation; AID 540263; Rango CFP/YFP FRET sensor + importin beta, 45 min; actives 0.031% (n = 340,000); active = rising FRET ratio curve, often small or poorly fitted; inconclusive = mostly compound fluorescence or quenching in the first reads; inactive = flat curves in all reads;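 also: potency is read from the fitted curve at half-maximal effect; 0% = DMSO wells and 100% = buffer wells lacking importin beta; nearly all actives have a fitted effect of over 15% in size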
Target sequence (Q14974 whole entry, looked up): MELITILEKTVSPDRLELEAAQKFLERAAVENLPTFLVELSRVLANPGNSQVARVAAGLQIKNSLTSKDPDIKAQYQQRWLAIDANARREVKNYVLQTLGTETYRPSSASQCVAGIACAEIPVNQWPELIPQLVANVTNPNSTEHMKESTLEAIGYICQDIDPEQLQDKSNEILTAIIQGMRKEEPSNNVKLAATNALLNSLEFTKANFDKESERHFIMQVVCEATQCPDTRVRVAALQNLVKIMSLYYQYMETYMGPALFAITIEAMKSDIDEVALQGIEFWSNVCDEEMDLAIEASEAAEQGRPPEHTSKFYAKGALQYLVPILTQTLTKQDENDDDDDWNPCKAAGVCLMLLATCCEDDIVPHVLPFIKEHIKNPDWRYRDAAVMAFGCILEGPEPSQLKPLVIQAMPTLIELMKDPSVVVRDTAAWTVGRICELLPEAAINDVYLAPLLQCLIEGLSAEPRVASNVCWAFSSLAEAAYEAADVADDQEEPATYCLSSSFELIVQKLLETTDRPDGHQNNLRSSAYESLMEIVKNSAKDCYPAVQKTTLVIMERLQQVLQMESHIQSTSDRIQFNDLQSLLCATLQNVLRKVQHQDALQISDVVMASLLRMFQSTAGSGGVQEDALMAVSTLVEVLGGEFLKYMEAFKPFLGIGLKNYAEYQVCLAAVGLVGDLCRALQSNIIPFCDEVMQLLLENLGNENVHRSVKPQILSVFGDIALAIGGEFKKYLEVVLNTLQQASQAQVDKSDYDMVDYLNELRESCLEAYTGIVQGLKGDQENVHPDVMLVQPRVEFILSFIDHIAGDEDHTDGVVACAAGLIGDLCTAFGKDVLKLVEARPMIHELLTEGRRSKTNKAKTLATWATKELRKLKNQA
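FRET biosensor (snurportin 1 IBB flanked by EYFP and cerulean), 50 nM, with compound 5 min, then 0.125 microM importin beta in PBS, 1 mM DTT, 0.02% Tween-20, 0.1% BSA. CFP/YFP ratio read after 45 min at room temperature; pre-read flags interference.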
The depositor's hits bear a star; ? = inconclusive; . = no result given; & = joins results of further samples.

Rango release inh | GLA inh pH 4.5 | miR-21 FLuc | Rango-impB inh | Compound
2% | 0 | -12% | -1.5% | Cn1c(=O)c2c(nc(CN3CCC(C(N)=O)CC3)n2Cc2c(F)cccc2Cl)n(C)c1=O
. | -1 | -33% | . | Cc1c(-c2cc[n+]([O-])cc2)oc2ccc(Br)cc2c1=O
-18% | . | 10% | 0.0% | O=C(NCc1ccccc1)c1ccc(N2CCC3(CC2)CC(c2ccccc2)=NO3)c([N+](=O)[O-])c1
14% | . | 8% | -0.1% | Cn1c(N)c(Sc2ccc([N+](=O)[O-])cc2)c(=O)n(C)c1=O
-1% | 0 | -29% | 11% | CC1=NNC(=O)/C1=C\c1cn(-c2ccccc2)nc1-c1ccc(Cl)cc1
3% | . | 4% | -0.7% | COc1cc(NC(=O)c2cc([N+](=O)[O-])ccc2NC(=O)CNCc2ccccn2)cc(OC)c1
-2% | . | 2% | -2.3% | CCCCc1ccc(S(=O)(=O)N2CCC3(CC2)OCCO3)cc1
7% | 0 | -8% | 4.7% | O=C1NC(=NCc2ccccc2)S/C1=C\c1ccccc1
16% | -9 | -5% | 3.8% | CSc1ccc(C#N)cc1NC(=O)c1ccccc1
15% | . | -13% | 2.4% | CCCCc1cc(=O)oc2cc(C)cc(OC(C)C(=O)NCc3ccccn3)c12 (stereo unspecified)
7% | . | . | -0.7% | Cc1ccc(S(=O)(=O)N2CCN(C(=O)CCCOc3ccc(Cl)cc3C)CC2)cc1
-10% | . | . | -4.9% | Cc1cccc(NC(=O)CNC(=O)CN2CCN(C)CC2)c1C
9% | . | 5% | -0.2% | Cc1ccc(C)c(N2CCN(S(=O)(=O)c3ccc4c(c3)NC(=O)CC(=O)N4)CC2)c1
2% | -12 | ? | -1.5% | O=C(Cn1cnc([N+](=O)[O-])c1)Nc1cc(Oc2ccc(Cl)cc2Cl)cc([N+](=O)[O-])c1
1% | -5 | -25% | 0.3% | N#Cc1cnn2c(N)c(-c3ccc(Cl)cc3)cnc12
0% | -3 | -2% | 5.2% | CN(C(=O)COC(=O)CNC(=O)c1sc2ccccc2c1Cl)c1ccccc1
1% | -1 | -11% | 4.1% | CCOC(=O)N1CCN(C(=O)CSCC(=O)Nc2nc(-c3ccc(Cl)s3)cs2)CC1
-10% | . | -4% | -1.5% | CC(C)[C@H](NC(=O)c1ccccc1Cl)C(=O)OCC(=O)NC(=O)NC1CCCC1
-20% | . | . | 2.3% | C=CCC[C@H](Cc1ccc(F)cc1)C(=O)OC[C@@H](Cc1c[nH]c2ccccc12)NC(=O)[C@@H](CC=C)CC(=O)N(CCO)Cc1ccccc1
0% | 8 | 14% | 4.3% | O=C(CSC1=NCCS1)N1CCN(c2ccc(Cl)cc2)CC1

(next part)
Rango release inh | GLA inh pH 4.5 | miR-21 FLuc | Rango-impB inh | Compound
7% | . | -6% | 0.4% | CCCS(=O)(=O)N1CCCC(C(=O)NCCc2cccc(C)c2)C1 (stereo unspecified)
18% | 1 | -48% | 0.5% | CCOC(=O)c1ccc(NC(=O)C2CCCO2)cc1 (stereo unspecified)
0% | 0 | -1% | 0.0% | Cn1c(N)c(C(=O)COC(=O)COc2ccccc2C#N)c(=O)n(C)c1=O
1% | 12 | 4% | 4.9% | CCCCN1CNC(=S)N(c2ccc(C(=O)OCC)cc2)C1
13% | . | . | 2.8% | CC(C)(C)c1ccc(NC(=O)CON=C(N)c2ccccc2)cc1
9% | -9 | -4% | 0.8% | O=C1NC2(CCCCCC2)C(=O)N1CCS(=O)(=O)Oc1ccccc1
-4% | 7 | -5% | -3.1% | COc1cc(NC(=O)CN2CCN(c3ccccc3F)CC2)c(C)cc1[N+](=O)[O-]
26% | -8 | -6% | 6.1% | O=C(CNc1cccc2ccccc12)c1ccc([N+](=O)[O-])cc1
-5% | . | 0% | -0.3% | CCOC(=O)c1ccccc1NC(=O)COC(=O)CCC(=O)c1ccccc1
-5% | . | -5% | -0.6% | COc1ccc(CCNC(C)C(=O)Nc2ccc(S(N)(=O)=O)cc2)cc1 (stereo unspecified)
-17% | 1 | 1% | -2.7% | COC(=O)c1ccc(C(=O)OC)c(NC(=S)N2CCN(C(=O)C3CCCO3)CC2)c1 (stereo unspecified)
-12% | . | . | 6.5% | Cn1cc(C2NC(=O)c3ccccc3N2)c2ccccc21 (stereo unspecified)
0% | . | . | 0.1% | COc1ccc(CNC(=O)COC(=O)c2c(NC(C)=O)sc(C)c2C)cc1
5% | -3 | -6% | -0.6% | CC(=O)Nc1ccc(S(=O)(=O)NC(CC(=O)NCCC2=CCCCC2)C(C)C)cc1 (stereo unspecified)
-17% | 8 | 0% | -0.5% | Nc1cc(-c2ccco2)no1
9% | 5 | -2% | -0.6% | Cn1c(N2CCOCC2)cc(=O)n(C)c1=O
-10% | . | -6% | -2.4% | COc1ccc(CNCc2c(F)cccc2F)cc1OC
1% | . | . | 2.5% | O=C(OCC#CCSc1nnc(-c2cccc3ccccc23)o1)c1cccc2[nH]ccc12
-4% | 0 | -13% | 1.3% | O=C(N/N=C/c1ccccc1Br)c1ccc(CSc2cccc3cccnc23)cc1
7% | -10 | 13% | -1.0% | Cc1cc(C)n(-c2ccc(C(=O)Nc3cc(S(=O)(=O)N(C)C)ccc3Cl)cc2)n1

Carrying on:
Rango release inh | GLA inh pH 4.5 | miR-21 FLuc | Rango-impB inh | Compound
-3% | . | 1% | -2.6% | C[C@H](NC(=O)NCCc1ccccc1)C(=O)O
-3% | 12 | -5% | 3.6% | Cc1cc(Br)cc(C)c1OCCCCN(C)C
-9% | . | . | 2.4% | COc1ccc(CCNS(=O)(=O)c2ccc(N3CCCC3=O)cc2)cc1
5% | -1 | -3% | -2.6% | COc1ccc(-c2nc3n(n2)C(c2cccnc2)C(C(N)=O)=C(C)N3)cc1 (stereo unspecified)
47% | 0 | 9% | 1.9% | COC(=O)c1c(C)nn(-c2ccc(F)c(Cl)c2)c1-c1cc(C)on1
8% | . | -1% | 0.6% | O=C(NCc1cccnc1)c1cc(S(=O)(=O)N2CCCC2)c(Cl)cc1Cl
-12% | . | 6% | -2.2% | CCOC(=O)N1CCN(C(=O)c2cccc(N3C(=O)NC4CC3(C)Oc3ccccc34)c2)CC1 (stereo unspecified)
-11% | . | . | -2.3% | CCN(CC(=O)Nc1c(F)cccc1F)C(=O)/C=C/c1ccc2ccccc2n1
29% | -4 | -62% | -4.5% | COc1ccc(Nc2nc3ccc(OC)cc3s2)cc1
-2% | . | . | -1.6% | CCOc1ccccc1-c1nc2c(s1)CCc1onc(-c3ccc(OC)cc3)c1-2
-35% | 3 | 17% | -1.2% | O=C(N/N=C/c1cc(Br)ccc1O)c1ccccc1Cl
-3% | -8 | -5% | -0.7% | CCOC(=O)c1c(-c2ccccc2)n(C)c2ccc(O)cc12
0% | . | . | -2.1% | CCN(C(=O)COC(=O)CC(C)c1ccccc1)c1c(N)n(Cc2ccccc2)c(=O)[nH]c1=O (stereo unspecified)
-5% | . | . | 0.8% | N=C1c2ccccc2-c2ccccc21
-10% | 10 | 0% | -3.8% | O=[N+]([O-])c1ccccc1S(=O)(=O)N1CCc2ccccc2C1
. | -10&-6 | 9% | . | O=C(c1ccc(F)cc1)C1CCN(CCn2c(=S)[nH]c3ccccc3c2=O)CC1
-13% | . | 26% | 2.4% | CCN(CC)CCCN(C(=O)c1ccc(OC)cc1)c1nc(-c2ccc(OC)cc2)cs1
1% | . | . | -2.1% | CCOc1ccc(Br)cc1S(=O)(=O)NCC(c1ccc(OC)cc1)N1CCOCC1 (stereo unspecified)
-2% | 5 | -9% | 1.9% | O=c1[nH]c2cc(Cl)ccc2n1-c1ccccc1
0% | -9 | -15% | 1.5% | COc1ccc(C(=O)NCc2ccc3c(c2)OCO3)cc1S(=O)(=O)NCc1ccc(Cl)cc1

Taken from above.
Result of O=C(NCc1ccccc1)c1ccc(N2CCC3(CC2)CC(c2ccccc2)=NO3)c([N+](=O)[O-])c1 in Rango-impB inh: 0.0%
Result of CC(C)[C@H](NC(=O)c1ccccc1Cl)C(=O)OCC(=O)NC(=O)NC1CCCC1 in Rango release inh: -10%
Result of O=C(CNc1cccc2ccccc12)c1ccc([N+](=O)[O-])cc1 in GLA inh pH 4.5: -8
Result of COc1ccc(CNCc2c(F)cccc2F)cc1OC in Rango-impB inh: -2.4%
Result of CC1=NNC(=O)/C1=C\c1cn(-c2ccccc2)nc1-c1ccc(Cl)cc1 in GLA inh pH 4.5: 0

Continued:
Rango release inh | GLA inh pH 4.5 | miR-21 FLuc | Rango-impB inh | Compound
26% | 5 | -2% | 0.4% | CCOC(=O)COc1c(C(=O)OC)sc2ncccc12
1% | . | . | ? | COC(CNC(=O)C(=O)NCC1CCCN1S(=O)(=O)c1cccs1)OC (stereo unspecified)
8% | 2 | -2% | -2.9% | Cc1ccc(C)c(-n2c(Cc3cc(=O)[nH]c(=O)[nH]3)nnc2SC(C)C)c1
3% | 3 | 0% | 2.6% | O=C1CN(C(=O)C2CC2)c2ccccc2N1
-1% | -3 | -3% | -4.1% | S=c1nc(C23CC4CC(CC(C4)C2)C3)[nH][nH]1
-6% | . | . | -0.1% | O=C(CSc1nnc(-c2ccccc2)c2ccccc12)NCCN1C(=O)CSC1=O
2% | . | -4% | -0.2% | CCc1ccc(CCC(=O)Nc2ccc(C(=O)O)cc2)o1
18% | 9 | -1% | 0.0% | FC(F)(F)c1cccc(-n2c(Cn3nnc4ccccc43)n[nH]c2=S)c1
48% | . | -2% | -2.0% | O=C(N/N=C/c1cccc([N+](=O)[O-])c1)c1cc[n+](CCO)cc1
-4% | 1 | -1% | 3.1% | CCC(=O)N(Cc1cc2c(C)ccc(C)c2[nH]c1=O)C1CCCCC1
. | 1 | -4% | . | O.O.O.O=S(=O)([O-])OC[C@H]1O[C@@H](O[C@]2(COS(=O)(=O)[O-])O[C@H](OS(=O)(=O)[O-])[C@@H](OS(=O)(=O)[O-])[C@@H]2OS(=O)(=O)[O-])[C@H](OS(=O)(=O)[O-])[C@@H](OS(=O)(=O)[O-])[C@@H]1OS(=O)(=O)[O-].[Al]
4% | . | . | 1.0% | COC(=O)C[C@H]1c2ccccc2S(=O)(=O)N1C(C)C
11% | . | . | -1.8% | CC(C)(C)c1ccccc1NC(=O)COC(=O)CN1C(=O)NC2(CCCC2)C1=O
-2% | . | . | -2.5% | CN(CC(=O)Nc1ccc2c(c1)OCCO2)CC(=O)Nc1ccc(F)c(F)c1F
0% | 6 | -5% | -8.4% | CC(=O)CSc1nnc(CN2C(=O)CSc3ccc(C(F)(F)F)cc32)n1C
7% | 7 | -30% | -1.9% | CCC(=O)Nc1ccccc1C(=O)OCC(=O)c1ccccc1
0% | . | -32% | -4.3% | Cc1c(-c2ccc(OCc3ccccc3)cc2)nc2ccccc2c1C(=O)O
0% | . | -3% | 6.7% | Cc1ccc(NC(=O)CC(C)CC(=O)NCc2ccccc2)cc1Cl (stereo unspecified)
-25% | . | . | 4.5% | C/C(=N\O)C(C)/[N+]([O-])=C/c1nc(C)c(C)n1O (stereo unspecified)
2% | . | -1% | -0.1% | CC(=O)Nc1ccc(CN(C)CC2CCCN(CCc3cccc(C(F)(F)F)c3)C2)cc1 (stereo unspecified)

Next section:
Rango release inh | GLA inh pH 4.5 | miR-21 FLuc | Rango-impB inh | Compound
4% | 5 | 22% | 3.0% | COc1ccccc1/C=C/C=N/NC(=O)CCn1cnc2ccccc21
0% | 4 | 0% | 5.1% | O=C(CN(C(=O)Cn1nnc(-c2ccc(F)cc2)n1)c1ccc(F)c(Cl)c1)NCC1CCCO1 (stereo unspecified)
? | 2 | -13% | ? | CCOC(=O)/C(C#N)=C/Nc1cc(OC)ccc1OC
0% | 2 | -2% | -5.1% | CN(Cc1ccccc1)c1nnc(N)s1
-3% | 7 | -58% | -1.8% | COc1ccc(-c2nnc(-c3cccnc3)o2)cc1OC
. | -7 | -1% | . | Fc1ccc2[nH]c3c(N4CCN(C5CCCCC5)CC4)ncnc3c2c1

Molecules above containing a furan ring, fused or not:
Rango release inh | GLA inh pH 4.5 | miR-21 FLuc | Rango-impB inh | Compound
-17% | 8 | 0% | -0.5% | Nc1cc(-c2ccco2)no1
2% | . | -4% | -0.2% | CCc1ccc(CCC(=O)Nc2ccc(C(=O)O)cc2)o1

The list is partial. The share of hits here may be higher or lower than overall.
